RanGTP-Impb inh: inhibitors of RanGTP-importin-beta interaction, primary screen, biochemical, FRET, CFP-Ran, YFP-importin-beta, homogeneous; cell-free CFP-Ran/YFP-importin-beta FRET ratio; inhibition, % (no concentration beside the values); 300,000 compounds, 1.1% hits; AID 2216;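 active means most replicates above 15%; inconclusive means exactly half above 15%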;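 further: 0% = DMSO wells and 100% = Ran loaded with GDP instead of GTP; wells of about 40 µL received 100 nL stock; the first replicate is given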
Calb FLC: affects C. albicans growth with fluconazole; C. albicans CaCi-2 (fluconazole-resistant clinical isolate) + fluconazole, Alamar Blue growth, 48 h; growth inhibition, % (concentration not given with the values); 300,000 compounds, 0.57% hits;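 active means most replicates above 75%; inconclusive means exactly half above 75%; inactive means most below 75%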;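 further: all wells also contain fluconazole at 8 µg/ml as a sub-toxic cotreatment; 0% = median of DMSO wells and 100% = median of geldanamycin control wells; wells of about 8 µL received 7.5 nL stock; the first replicate is given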
A1 inh: inhibitors of the anti-apoptotic protein A1, read as caspase activation; MEF A1-2A-BIM cells, Caspase-Glo 3/7 luminescence, 3 h; percent of clofoctol response, vehicle zero; caspase activation, % (no concentration beside the values); 330,000 compounds, 0.066% hits; AID 2462;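 active means over half of replicate activation scores above 10%, or exactly half above 10 with the replicate mean above 10; inconclusive means replicate mean below 10 yet half the replicates above 10; inactive means over half of replicates below 10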;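 further: wells of about 30 µL received 50 nL stock; many hits fall short of the cut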
Beta2AR agonist: human beta-2 adrenergic receptor agonism by FAP. Am2.2-beta2AR cells, FAP receptor internalization, flow cytometry; reference of the scale not given here. response, % (concentration not given with the values). 340,000 compounds, 0.43% hits;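 active means response above a set limit, near 3 SD of response in nonfluorescent compounds, cut at about 42% in these data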;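 further: stock transfer was 100 nL into about 11 µL; a reference agonist was the positive control; negative values mostly stem from fluorescent compounds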
LANA-H2A inh: blocks KSHV LANA binding to histone H2A/H2B; inhibition, % (concentration not given with the values); Q9QR71; 320,000 compounds, 0.6% hits; cell-free LANA-H2A/H2B peptide, fluorescence polarization; AID 2629; in the data active means inhibition mostly above about 10%, no sharp cut-off; inactive means mostly below about 6.7%;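 further: stock transfer was 7.5 nL into about 10 µL; 0% = median of vehicle wells and 100% = median of positive control wells; one replicate is shown; the record names a cut of 25% in any replicate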
Target sequence (Q9QR71 whole entry, looked up): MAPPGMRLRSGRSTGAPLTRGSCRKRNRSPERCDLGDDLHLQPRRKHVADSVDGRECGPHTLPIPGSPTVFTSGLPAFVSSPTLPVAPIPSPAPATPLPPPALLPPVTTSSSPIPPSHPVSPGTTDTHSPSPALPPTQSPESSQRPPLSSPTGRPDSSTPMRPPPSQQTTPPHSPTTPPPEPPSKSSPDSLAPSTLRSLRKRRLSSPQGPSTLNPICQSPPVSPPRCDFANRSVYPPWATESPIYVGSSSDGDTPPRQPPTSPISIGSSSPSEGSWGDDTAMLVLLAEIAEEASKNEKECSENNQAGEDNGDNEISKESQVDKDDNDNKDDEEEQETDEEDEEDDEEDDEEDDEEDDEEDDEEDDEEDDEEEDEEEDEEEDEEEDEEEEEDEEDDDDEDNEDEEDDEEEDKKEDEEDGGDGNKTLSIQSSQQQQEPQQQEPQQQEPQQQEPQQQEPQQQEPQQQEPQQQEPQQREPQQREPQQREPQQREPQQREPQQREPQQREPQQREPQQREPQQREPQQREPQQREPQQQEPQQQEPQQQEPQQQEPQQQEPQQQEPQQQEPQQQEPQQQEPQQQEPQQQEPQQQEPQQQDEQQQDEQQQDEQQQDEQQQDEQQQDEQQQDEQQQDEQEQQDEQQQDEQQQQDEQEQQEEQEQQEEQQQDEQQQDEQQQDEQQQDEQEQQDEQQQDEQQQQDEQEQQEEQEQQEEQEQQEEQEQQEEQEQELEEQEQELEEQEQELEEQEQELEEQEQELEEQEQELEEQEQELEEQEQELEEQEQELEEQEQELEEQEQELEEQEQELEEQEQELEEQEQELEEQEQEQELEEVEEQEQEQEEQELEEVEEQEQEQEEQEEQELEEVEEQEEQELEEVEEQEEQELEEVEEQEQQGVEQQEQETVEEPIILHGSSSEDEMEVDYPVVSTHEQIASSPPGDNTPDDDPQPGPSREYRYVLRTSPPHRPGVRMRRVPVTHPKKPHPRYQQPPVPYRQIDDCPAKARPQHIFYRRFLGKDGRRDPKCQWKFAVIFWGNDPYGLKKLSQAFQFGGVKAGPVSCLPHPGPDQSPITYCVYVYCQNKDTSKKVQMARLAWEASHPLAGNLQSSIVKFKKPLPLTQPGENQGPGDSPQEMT
T cruzi inh: blocks replication of Trypanosoma cruzi; T. cruzi beta-gal in NIH3T3, luminescence, 90 h; inhibition, % (no concentration beside the values); 300,000 compounds, 1.4% hits; AID 1885;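 active means mean inhibition across valid replicates above about 55%, limit read from the data; inconclusive means mean below that limit but half or more replicates reach it; inactive means mean below it, under half of replicates reach it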;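 further: signal also drops with host cell toxicity which is not excluded here; 0% = plate median of DMSO wells and 100% = zero luminescence signal; higher percent means less beta-gal luminescence so fewer parasites; stock transfer was 50 nL into about 50 µL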
UCH37 inh: human UCH37 deubiquitinating enzyme inhibition. Q9Y5K5. purified proteasome/UCH37, Ub-AMC cleavage fluorescence. inhibition, % (concentration not given with the values). 330,000 compounds, 0.33% hits;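 active means mean of two replicates above 20%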;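 further: 0% = compound-free wells with enzyme and 100% = wells lacking proteasome; stock transfer was 100 nL into about 20 µL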
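Material: human UCH37 enzyme supplied as purified proteasome complex. Measure: % inhibition of Ub-AMC cleavage fluorescence. Medium: pH 7.4 Tris-HCl (50 mM) with ovalbumin, ATP-MgCl2, DTT. Times: 30 min preincubation with enzyme, 25 min cleavage at room temperature. Detection: AMC fluorescence intensity at 355/460 nm.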
Beta apoptosis: blocks beta cell apoptosis; AID 435005; protection from apoptosis, % (no concentration beside the values); INS-1E cytokine-induced death, ATP luminescence, 48 h; percent of positive-control rescue, neutral wells zero; 300,000 compounds, 0.8% hits;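 active means all replicates at 75% or more, or half of them and the mean; inconclusive means half reach 75% but not the mean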;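 further: 0% = cytokine-treated negative control wells and 100% = positive control rescue; higher means more ATP so stronger rescue from cytokine killing; wells of about 40 µL received 100 nL stock; the first replicate is given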
An asterisk follows results filed as active; ? = inconclusive; . = no result given.

Fields: RanGTP-Impb inh | Calb FLC | A1 inh | Beta2AR agonist | LANA-H2A inh | T cruzi inh | UCH37 inh | Beta apoptosis
(1) CCOC(=O)c1c(NC(=O)C2=C(C)NC(=S)NC2c2ccc(F)cc2F)sc(C)c1C (stereo not given)
 : -0.3 | -4 | 0.2 | -6 | -4.4 | 28 | -51 | 2
(2) COc1ccccc1-n1nnnc1SCc1cc2c(cc1Br)OCO2
 : 0.9 | -18 | -0.3 | -5 | -2.5 | 5 | 0.9 | 5
(3) O=C(Cn1ccc2cc(S(=O)(=O)N3CCCC3)ccc21)NCc1ccccc1
 : 1.5 | -20 | -0.1 | -4 | -2.9 | -5 | 6.1 | -5
(4) COc1ccc(NC(=O)CSc2nc(-c3ccco3)nc3cc(=O)[nH]n23)cc1Cl
 : 5.8 | -4 | ? | 8 | 2.7 | -5 | 15 | -4
(5) CCO[C@@H]1OC(C(=O)O)=C[C@H](c2ccc(C(F)(F)F)cc2)[C@H]1CCCO
 : 1.6 | -1 | 0.5 | -5 | -0.2 | -11 | 3.3 | -1
(6) O=C(NCCc1c[nH]c2ccccc12)c1cncc(Br)c1
 : 0.0 | -7 | 0.6 | -2 | -5.1 | 19 | 4.0 | 1
(7) CCOc1cc(C(=O)Nc2ccc(F)cc2)cc(Br)c1OC
 : 4.3 | -1 | 0.6 | -5 | -2.7 | -8 | 1.3 | 9
(8) Cc1cc(OC(C)C)nc(-c2ccccc2O)n1
 : -0.3 | -8 | -0.1 | 2 | -1.9 | -6 | -0.7 | .
(9) CCCN1C(=O)/C(=C/c2nc3ccccc3c(=O)[nH]2)c2ccccc21
 : ? | ? | -0.6 | -5 | -3.8 | 6 | 5.3 | 3
(10) NC(=O)c1ccc(NC(=O)CSc2cn(CC(=O)N3CCOCC3)c3ccccc23)cc1
 : 2.4 | 33 | -0.3 | 7 | 11 | -11 | 4.2 | -4
(11) Cc1ccc2oc(=O)c(/C=C(\O)c3ccco3)nc2c1
 : -0.9 | 1 | 0.1 | 13 | 4.3* | 3 | . | -7
(12) CCCCc1ccc(NC(=S)N2CCCC2)cc1
 : . | -34 | 1.9 | -10 | -2.9 | . | 3.0 | 8
(13) CCC1CCCCN1C(=O)COc1ccc(N(C)S(=O)(=O)c2ccc(C)cc2)cc1 (stereo not given)
 : 1.1 | 5 | -0.1 | 11 | -1.6 | 30 | 1.4 | 6
(14) COc1ccc2cc(CCNC(=O)C(C)(C)C)c(=O)[nH]c2c1
 : -6.3 | 1 | 0.4 | 6 | -7.7 | -2 | -1.0 | 7
(15) CN(C)c1cccc(N(C)C)c1CNC(=O)C(C)(C)C
 : 3.0 | 3 | 0.0 | -3 | -0.4 | -9 | 5.7 | -1
(16) CCOc1ccc(-c2nc3c(s2)CCc2onc(-c4ccc(OC)cc4)c2-3)cc1
 : -1.7 | 4 | 0.5 | 0 | 1.0 | -5 | 4.3 | .
(17) CCCCOC(=O)Nc1nnc(CC)s1
 : 0.4 | -13 | 0.0 | 7 | 4.7 | 21 | 2.0 | -11
(18) COCCCNC(=S)N(Cc1ccccc1)Cc1ccc(F)cc1
 : -2.7 | 6 | 0.1 | 7 | -2.9 | 15 | 3.5 | .
(19) COc1ccccc1NC(=O)N1CCN(c2ccc3nncn3n2)CC1
 : 4.3 | 9 | 0.0 | -2 | -1.9 | -2 | 2.5 | -4
(20) CC(C)C(=O)Nc1ccc(C(=O)NNC(=O)CCCOc2ccc(Cl)cc2Cl)cc1
 : 3.5 | -8 | 0.9 | -2 | -6.9 | 7 | 1.2 | 0
(21) Cc1ccc(N(Cc2ccccc2)C(=O)CN2C(=O)NC3(CCCC3)C2=O)cc1
 : -0.1 | -6 | -0.1 | -1 | 2.2 | 11 | 0.9 | -6
(22) COC(=O)[C@]1(Cc2ccccc2)N[C@H](CN(C)S(=O)(=O)c2ccc(C(C)(C)C)cc2)[C@@H]2C(=O)N(C)C(=O)[C@@H]21
 : . | . | -0.9 | -1 | 0.5 | . | 4.2 | 3
(23) CC(=O)c1c(C(C)=O)c(C)n(Cc2ccc3c(c2)OCO3)c1C
 : 0.3 | 5 | 0.6 | -3 | 0.0 | -2 | -1.1 | 2
(24) CCCOc1ccccc1C(=O)N(Cc1ccc(C)o1)C1CCS(=O)(=O)C1 (stereo not given)
 : 0.0 | 14 | -0.2 | -4 | 5.2 | -8 | -2.3 | -3
(25) NC(=O)c1ccccc1NC(=O)CCCCCn1nnc2ccccc2c1=O
 : -0.3 | -5 | 0.7 | -21 | 1.0 | 1 | 7.6 | -2
(26) CCCCC1=CC2=CC(=O)C(C)(OC(=O)CC)C(=O)C2=CN1C(CO)CO (stereo not given)
 : -1.6 | 19 | -0.3 | -1 | 5.4 | -6 | 3.1 | 5
(27) Cc1cc(=O)oc2cc(OCC(=O)NC3CC(C)(C)NC(C)(C)C3)c(Cl)cc12
 : 0.2 | 3 | -0.4 | 0 | -8.7 | -6 | -11 | 16
(28) Cc1ccccc1N1CCN(S(=O)(=O)C[C@]23CCC(CC2NC(=O)[C@@H](N)CCS(C)(=O)=O)C3(C)C)CC1 (stereo not given in full)
 : . | . | -0.4 | 4 | -2.7 | . | -0.8 | -1
(29) CCOC(=O)C(=O)N1CCC(C(=O)OC)CC1
 : 0.0 | -11 | -0.2 | 1 | -2.0 | -6 | 1.1 | -4
(30) Cc1nn(Cc2ccccc2Cl)c2sc(C(=O)NC(C)(C)C)cc12
 : 5.7 | 7 | 0.2 | -4 | 0.1 | -7 | -0.1 | 5
(31) CC(C(=O)N1CCN(c2ccccc2)CC1)N1C(=O)C2CC=CCC2C1=O (stereo not given)
 : -4.1 | -18 | 0.0 | -1 | 2.0 | -3 | 3.7 | -4
(32) Cn1ncc2c(=O)[nH]cnc21
 : ? | -1 | 0.5 | 2 | -2.1 | -12 | 0.8 | .
(33) CCOc1ccc(C(=O)NC(C(=O)NCc2ccccn2)C(C)C)cc1 (stereo not given)
 : 3.3 | -10 | 0.5 | 12 | -3.8 | -18 | -0.2 | -6
(34) CCOc1ccc(S(=O)(=O)NCc2ccc(F)cc2)c2cccnc12
 : -4.3 | -5 | -0.1 | -20 | -0.9 | -16 | -52 | -3
(35) Cc1ccc(S(=O)(=O)N2CCOCC2)cc1C(=O)NC1=NCCS1
 : . | . | 1.7 | -3 | 4.0 | . | 0.6 | -5
(36) CC(C)(C)c1cc[n+](-c2nc([O-])sc2C=O)cc1
 : -1.8 | 14 | 0.7 | -5 | -3.7 | -6 | 12 | -5
(37) COCCN(C(=S)Nc1ccc(C)cc1C)C(C)c1cccs1 (stereo not given)
 : 2.0 | 5 | 0.7 | -4 | -1.1 | -10 | 1.0 | 15
(38) O=C(OCC(=O)N(C1CCCCC1)C1CCCCC1)c1cnccn1
 : 5.3 | -38 | -0.1 | 1 | -1.9 | 1 | 2.5 | -4
(39) Nc1nc(NCCCN2CCOCC2)nc(Nc2ccc(Cl)cc2)c1[N+](=O)[O-]
 : -0.7 | 27 | -0.3 | -7 | 4.0 | 24 | 8.0 | 2
(40) COc1ccccc1NC(=O)CSc1ncnc2c1oc1ccccc12
 : ? | -13 | 0.8 | -11 | 1.7 | 16 | 1.6 | 3
(41) COc1cc2c(C(=O)NCc3ccc4c(c3)OCO4)cn(C)c(=O)c2cc1OC
 : 0.6 | -2 | -0.1 | -1 | -1.0 | -5 | 0.3 | 5
(42) Cc1cc(C(=O)O)ccc1-n1c(C)ccc1C
 : 1.7 | 4 | -0.6 | . | 3.4 | -4 | . | -1
(43) COc1ccc(/C=N/Nc2nncn2N)cc1Br
 : 6.9 | 7 | 0.2 | -8 | -4.0 | 7 | . | 8
(44) C/C(=N\NC(=O)Cc1c(C)[nH][nH]c1=O)c1cccc(Br)c1
 : -1.1 | -9 | 0.5 | -8 | 7.2 | 9 | . | -5
(45) CCOc1cc2[nH]c(=S)n(Cc3ccc(C(=O)NCCOC)cc3)c(=O)c2cc1OCC
 : 1.8 | 0 | -0.4 | 24 | -3.3 | -2 | 1.4 | -3
(46) CN(C(=O)COC(=O)/C=C/c1ccc(S(=O)(=O)N2CCc3ccccc32)cc1)C1CCS(=O)(=O)C1 (stereo not given)
 : 0.1 | -9 | 1.0 | 4 | 0.3 | 28 | 0.0 | .
(47) Cc1ccc(CNC(=O)C2CC=CCC2C(=O)O)cc1 (stereo not given)
 : 5.9 | -3 | -0.4 | -5 | 6.3 | -11 | 2.2 | 1
(48) Cc1ccc(Cl)cc1N1CCN(C(c2ccc(C#N)cc2)c2nnnn2C2CCCC2)CC1 (stereo not given)
 : . | . | 0.4 | 2 | -2.9 | . | 0.9 | 4
(49) O=C(Nc1ccccc1)Nc1ccc(Cl)c([N+](=O)[O-])c1
 : -1.7 | 38 | 0.5 | 6 | . | 35 | 1.4 | 45
(50) CO/C(N)=C(\C#N)N=Cc1ccccc1Cl
 : 9.3 | -5 | -1.0 | -3 | 5.4 | -11 | -1.5 | .
(51) CN(c1ccccc1)S(=O)(=O)c1cc(C(=O)OCC(N)=O)ccc1Cl
 : 1.0 | 18 | 0.1 | -1 | -5.3 | 16 | 3.9 | .
(52) CCN1C(=O)NC2C1N(S(C)(=O)=O)CCN2S(C)(=O)=O (stereo not given)
 : 2.0 | -6 | -0.5 | -4 | 3.7 | -7 | 0.5 | -6
(53) O=C(Cn1ccc(NC(=O)OCc2ccccc2)nc1=O)NCCN1CCOCC1
 : . | . | -0.5 | 0 | -2.1 | . | 3.4 | 0
(54) OC1(c2cccs2)CN(c2ccc(Cl)cc2)C2=[N+]1CCCS2 (stereo not given)
 : -4.6 | -4 | 1.0 | 12 | -3.0 | 28 | 0.8 | 1
(55) CC(C)=C1SC(N2CCN(c3cccc(C)c3)CC2)=NC1=O
 : -1.3 | -4 | -0.6 | 9 | 0.6 | -2 | 1.7 | 2
(56) COc1ccc(NC(C)=O)cc1S(=O)(=O)N1CCN(C/C=C/c2ccccc2)CC1
 : -1.3 | 2 | 0.3 | -12 | -1.0 | -10 | 0.6 | -6
(57) O=C(COC(=O)/C=C/c1ccc(S(=O)(=O)N2CCCCCC2)cc1)NCc1ccccc1Cl
 : 0.0 | 19 | 0.0 | 5 | -2.3 | 12 | 6.2 | -7
(58) N#Cc1ccccc1OCC(=O)OCC(=O)N1CCCC1
 : . | . | 0.2 | 4 | 3.7 | . | 0.6 | -3
(59) COc1ccc(S(=O)(=O)NCC(c2ccco2)N2CCc3ccccc3C2)cc1 (stereo not given)
 : 0.7 | 6 | 0.4 | -2 | -0.8 | 6 | 2.3 | -1
(60) Cc1cccc(C)c1OCc1cc(C(=O)N(Cc2nccn2C)C(C)C)no1
 : 3.5 | -14 | 0.0 | -1 | 1.7 | 10 | 6.4 | -1
(61) O=C(Nc1nnc(SCc2ccc(F)cc2)s1)C1CC(=O)N(Cc2ccccc2)C1 (stereo not given)
 : -4.1 | -10 | 0.6 | -4 | -3.1 | 0 | -0.4 | 1
(62) COc1ccc(Cl)cc1N1C(=O)C2CCCN2C1c1ccccc1F (stereo not given)
 : -2.0 | 5 | -0.2 | -3 | 1.0 | -18 | 0.9 | 1
(63) C[C@@H]1COC(=O)[C@H](Cc2ccc(F)cc2)C/C=C\C[C@@H](CC(=O)N[C@H](CO)Cc2ccccc2)C(=O)N1
 : . | . | -0.4 | -8 | 1.4 | . | 1.1 | 2

Compound activity as filed in PubChem.
